Assay outcomes from PubChem BioAssay.
TsaE inh = qHTS Assay for Inhibitors of YjeE | 71,000 tested, 0.05% active | AID 605, 2007 | Potency, µM | purified YjeE, fluorescence polarisation of a bound ADP probe | tRNA threonylcarbamoyladenosine biosynthesis protein TsaE (Escherichia coli (strain …; active = well fitted falling curve; inconclusive = weaker or top-dose-only fall, or a rising curve; inactive = flat or poorly fitted curve;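 note: top concentration of the series not given in the record; excess ADP was the control for the full effect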
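Purified YjeE (10 uM) with BODIPY Texas Red-labeled ADP probe (2 uM); compounds pin-transferred, 15 min at room temperature. Binding inhibition read as decreased fluorescence polarization; ADP titration as control.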
PK Bst = Pyruvate Kinase | AID 361, 2006 | 51,000 tested, 1.2% active | partly purified Bacillus stearothermophilus pyruvate kinase, luminescence ATP production; ribose 5-phosphate activator present at AC10 | Potency, µM; in the data active means potency below about 11 µM; inconclusive means mostly about 12 µM to 25 µM; inactive means weaker than that;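 the screen sought inhibitors and activators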;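 note: potency is the fitted concentration of half-maximal effect; scaled between full activation by ribose 5 phosphate and full inhibition by luteolin; about four in five hits inhibit and the cells do not say which; series up to 57 µM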
Active calls of the source: *; i = inactive; u = inconclusive; x = not tested or not shown. This is a subset; rates above refer to the full screens.

TsaE inh,PK Bst,Compound
i,>57,O=C(CCN1CCc2ccccc2C1)c1ccc2c(c1)OCCO2
i,>57,O=C1CCCC2=C1C(Cc1ccccc1)C1=C(CCCC1=O)O2
i,>57,Cc1noc(C)c1S(=O)(=O)N1CCC(C(=O)N2CCN(Cc3ccc4c(c3)OCO4)CC2)CC1
i,>57,COC(=O)[C@H](Cc1ccccc1)NC(=O)NCCc1ccc(S(N)(=O)=O)cc1
i,x,CCc1ccccc1S(=O)(=O)Cc1ccc(C(=O)NCc2ccc3c(c2)OCO3)o1
i,>57,O=C(CN(Cc1ccc(F)cc1)C(=O)Cn1nnc2ccccc21)NCC1CCCO1 (centres undefined)
i,>57,COc1ccc(S(=O)(=O)N2CCCC(C(=O)NC3CCCCC3)C2)cc1 (centres undefined)
i,>57,COc1ccc(C(C)(C)C)cc1NC(=O)Nc1ccc2c(c1)OCO2

Compound profiles (already shown). Order of values: TsaE inh | PK Bst
Listed for COc1ccc(S(=O)(=O)N2CCCC(C(=O)NC3CCCCC3)C2)cc1 (centres undefined) = i | >57
Listed for CCc1ccccc1S(=O)(=O)Cc1ccc(C(=O)NCc2ccc3c(c2)OCO3)o1 = i | x
Listed for O=C1CCCC2=C1C(Cc1ccccc1)C1=C(CCCC1=O)O2 = i | >57

Following part.
TsaE inh,PK Bst,Compound
i,x,CCOC(=O)c1c(CN2CCCCC2)n(C)c2cc(Br)c(O)c(CN(C)C)c12
i,>57,O=C(Nc1ccccc1NC(=O)NC1CCCCC1)NC1CCCCC1
i,x,Cc1ccc(-c2c3c([nH]c(=S)c2C#N)CCCC3)o1
u,x,CC(C)N(CCC(=O)c1ccc2ccccc2c1)Cc1ccccc1
i,>57,O=C(Cn1c(=O)n(-c2ccc(F)cc2)c(=O)c2sccc21)N1CCCC1
i,x,CC1=CC(C)(C)N(C(=O)CSc2nccn2C)c2cc(C)ccc21
i,x,CCn1c(SCC(=O)c2ccc3c(c2)OCCO3)nnc1-c1ccco1
i,>57,c1ccc(-c2oc3ncnc(NCCCn4ccnc4)c3c2-c2ccccc2)cc1
i,>57,CCN(CC)P(=O)(/C(Cl)=C\Nc1c(C)n(C)n(-c2ccccc2)c1=O)N(CC)CC
i,x,N=C1CCC[C@@H]1C(=S)SCCC(N)=O
i,>57,Cc1cc2cc(CN(Cc3nnnn3C3CCCCC3)CC3CCCO3)c(=O)[nH]c2cc1C (centres undefined)
i,x,Nc1nnc(-c2ccccc2Cl)s1
i,>57,CC(=O)Nc1cccc(NC(=O)CSc2ncc(-c3ccc(Cl)cc3)n2Cc2ccco2)c1
i,u,O=c1/c(=C\c2ccc3c(c2)OCO3)sc2n1CCCN=2
i,x,N#CCCn1c(=O)c(CCc2ccccc2)nc2cnc(Nc3ccccc3)nc21
i,>57,COc1ccc(-c2nnc(SCC(=O)Nc3sc4c(c3C#N)CCC4)n2CC2CCCO2)cc1 (centres undefined)
i,x,O=C(O)[C@H]1C[C@H](C(=O)O)N1
i,>57,COc1cc(C2C(C#N)=C(N)Oc3cc(C)n(CC4CCCO4)c(=O)c32)cc2c1OCO2 (centres undefined)
x,>25.6,CCCCNC(=O)N1CCOCCOCCN(C(=O)NCCCC)CCOCC1
x,>11.4,Cn1c(=O)c2c3c(sc2n2c(SCC(=O)c4ccc(Cl)cc4)nnc12)COC(C)(C)C3
i,x,Cc1cccc(CNc2cc(-c3ccc(C(=O)N(C)C)cc3)ncn2)c1
i,>57,Cn1cccc1C(=O)OCC(=O)c1cc2ccccc2o1
i,x,O=C(CC1Oc2ccccc2NC1=O)NCCc1ccccc1 (centres undefined)
i,>57,Cc1cc(C(=O)N2CCCCCC2)cs1
i,>57,O=C(c1cccs1)N1CCN(C/C=C/c2ccccc2)CC1
i,x,Fc1ccccc1OCCSc1nnnn1-c1ccccc1
i,>57,O=C(CCC1N=C2c3ccccc3N=C(SCc3ccccc3Cl)N2C1=O)NCc1ccco1 (centres undefined)
i,x,COc1ccccc1CNc1ncnc2ccc(-c3ccccc3OC)cc12
i,>57,CCC(=O)Nc1nonc1-c1nc2ccccc2n1Cc1ccccc1
i,>57,COc1ccccc1-c1cn(S(=O)(=O)c2ccc(C)cc2)nc1N
i,x,CCOC(=O)N1CCN(C(=O)c2cc3c(=O)[nH]c4ccccc4c3s2)CC1
i,>57,CN1CCN(/C=N/c2c(C#N)cnn2C)CC1
i,>57,O=C1c2ccccc2C(=O)N1Cc1ccco1
i,>57,CCOC(=O)c1ccc(N2C(=O)C(C)=C(C)C2=O)cc1
i,x,CC(C)N(Cc1ccccc1)C(=O)c1cnc2n(c1=O)CCS2
i,>57,CSc1ccc(-c2c(C#N)c(N)nc3c2CCCC3)cc1
i,x,CC1=C(C(N)=O)C(c2ccccc2)n2nc(-c3cccs3)nc2N1 (centres undefined)
i,x,O=C(O)CCC(=O)NCc1ccc2[nH]c3c(c2c1)CCCC3
i,x,Cc1cc(C(=O)Nc2ccccn2)cs1
i,>57,O=C(COc1ncnc2ccccc12)N1CCN(S(=O)(=O)c2ccccc2)CC1

Taken from above.
Entry for O=C(COc1ncnc2ccccc12)N1CCN(S(=O)(=O)c2ccccc2)CC1 under PK Bst: >57
Entry for O=C1c2ccccc2C(=O)N1Cc1ccco1 under PK Bst: >57
Entry for CSc1ccc(-c2c(C#N)c(N)nc3c2CCCC3)cc1 under PK Bst: >57

Later entries
TsaE inh,PK Bst,Compound
i,>57,COc1ccc(OC)c(NC(=O)C2CCN(c3nc(C)cc(C)n3)CC2)c1
i,x,COc1ccc(N2C(=O)C3CCCN3C2c2ccccc2)cc1 (centres undefined)
i,>57,Cc1c(NC(=O)c2cccc(F)c2)c(=O)n(-c2ccccc2)n1C
i,x,N#CC(CC(=O)O)=C(c1ccccc1)c1ccccc1
i,x,CS(=O)(=O)N(CC(=O)N1CCCC1)c1cccc(Cl)c1Cl
i,x,CN1CCN(c2ncnc3ccc(-c4ccccc4Cl)cc23)CC1
i,>57,CCCCNC(=O)CCSc1nc2nc(C)cc(C)n2n1
i,x,O=C(Nc1ccc2nc(-c3cccnc3)[nH]c2c1)c1ccco1
i,>57,CSc1nc(-c2ccco2)nn1S(C)(=O)=O
i,>57,CCOC(=O)N1CCC(n2c(SCC(=O)NCCC3=CCCCC3)nc3ccccc3c2=O)CC1
i,x,Cc1cc(C)cc(N(CC(=O)N2CCN(c3ccccc3)CC2)S(=O)(=O)c2c(C)noc2C)c1
i,x,CC12COC3(C(=O)Nc4ccc(Cl)cn4)CC1CCC32C (centres undefined)
i,x,CN(C(=O)c1ccccn1)c1nnc(-c2cnccn2)s1
i,>57,O=C(CCn1c(=O)c2sccc2n(CC(=O)NCc2ccco2)c1=O)NCc1ccccc1
i,x,CCOC(=O)c1[nH]c(Cc2[nH]c(C(=O)OCC)c(C)c2CCC(=O)OC)c(CCC(=O)OC)c1C
i,>57,COC(=O)COC(=O)c1ccc(-n2nnnc2SC)cc1
i,x,CCN(CC)CCNC(=O)NC1CCCCC1
i,>57,CCn1c(SCC(=O)NCC(=O)Nc2ccc(F)cc2)nnc1-c1cccs1
i,>57,CCS(=O)(=O)NCc1cn2c(C)csc2n1
i,>57,CCC(=O)N1CCc2cc(Br)cc(S(=O)(=O)N3CCN(c4ccccn4)CC3)c21
i,>57,COc1ccc(OC)c(NC2c3ncccc3C(=O)N2Cc2ccco2)c1 (centres undefined)
i,>57,Cc1ccnc(Sc2nc3c(c(=O)[nH]c(=O)n3C)n2CCCc2ccccc2)n1
i,>57,O=C(Cn1c(=O)sc2ccccc21)Nc1ccccc1C(=O)O
i,>57,CCCN(CCC(=O)Nc1cc(OC)cc(OC)c1)CC1CC1
i,x,CC(Oc1ccc(Cl)cc1)C(=O)Nc1nccs1 (centres undefined)
i,>57,CCCCNC(=O)Nc1ccnn1C1CCCCC1
i,x,NCCCCNS(=O)(=O)c1ccc2c(Cl)cccc2c1
i,x,c1ccc(-c2c3ccccc3nc3[nH]c4ccccc4c23)cc1
i,x,CN(C)c1ncc2nc(-c3ccc(F)cc3)c(=O)n(C[C@H]3CCCO3)c2n1
i,>57,O=c1nc(N(c2ccccc2)c2ccccc2)[nH]c(=O)[nH]1
i,>57,CCOC(=O)C1=C(N)Oc2c(oc(CO)cc2=O)C1c1c(F)cccc1Cl (centres undefined)
i,x,O=C(O)[C@H]1CCCC[C@@H]1c1c2ccc(=O)c(O)c-2oc2c(O)c(O)ccc12

Exported with two lines to a compound: three of the compounds above.
Below each compound – TsaE inh, PK Bst
> O=c1nc(N(c2ccccc2)c2ccccc2)[nH]c(=O)[nH]1
  i, >57
> CCOC(=O)C1=C(N)Oc2c(oc(CO)cc2=O)C1c1c(F)cccc1Cl (centres undefined)
  i, >57
> O=C(O)[C@H]1CCCC[C@@H]1c1c2ccc(=O)c(O)c-2oc2c(O)c(O)ccc12
  i, x

Next compounds follow:
TsaE inh,PK Bst,Compound
i,>57,O=C(Cc1n[nH]c(=O)c2ccccc12)NCc1ccccn1
i,x,O=C1c2cccnc2C(=O)N1Cc1cccs1
i,>57,O=C(C1CCN(S(=O)(=O)c2cccc3nsnc23)CC1)N1CC=C(c2ccccc2)CC1
i,>57,CCOc1cccc(NC(=O)C2CCCN(S(=O)(=O)c3ccc(OC)cc3)C2)c1 (centres undefined)
i,x,Cc1oc(C(=O)Nc2ccc(O)cc2)cc1COc1ccccc1
i,x,O=C(Nc1cccnc1)Nc1ccc2c(c1)OCO2
i,>57,Nc1nonc1-c1nc2ccccc2n1CCC(=O)O
i,>57,CCC(=O)N1c2ccc(S(=O)(=O)CCC(=O)N3CCn4c3nc3ccccc34)cc2CC1C (centres undefined)
i,x,CC1Oc2ccccc2C=C1C1/C(=C(/O)c2ccccc2)C(=O)C(=O)N1CCCN(C)C (centres undefined)
x,>25.6,c1nc(NC2CCCCC2)c2[nH]cnc2n1
i,x,Cc1ccc(OCCCC(=O)Nc2ccc3c(c2)OCO3)cc1
i,>57,CCOC(=O)N1CCN(CC(O)c2ccc3c(c2)CCN3)CC1 (centres undefined)
i,>57,Cc1nn(Cc2ccccc2Cl)c(C)c1C(=O)Nc1nnc(C2CC2)s1
x,>25.6,C[C@]12CC[C@@H]3c4ccc(OC(=O)c5ccccc5)cc4CC[C@H]3[C@@H]1CC[C@@H]2O
i,>57,CCOC(=O)c1oc2ccccc2c1CSc1nnnn1-c1ccccc1
i,>57,C=CCn1c(SCc2c(C)noc2C)nc2sc3c(c2c1=O)CCCCC3
i,x,CCCCNc1nc(C)nc2c1nc(-c1ccccc1)n2CC(C)(C)CN(C)C
u,x,CC(C)C[C@@H](CC(=O)N[C@@H](CCCN)CC(=O)N[C@@H]1CCCC[C@H]1C(=O)N[C@H](CC(=O)N[C@@H](CCC(=O)O)CC(=O)O)Cc1ccccc1)NC(=O)[C@@H]1CCCC[C@H]1N
i,x,CCCCNC(=O)C(c1ccc(-c2ccccc2)cc1)N(CCN1CCOCC1)C(=O)CCCCCN1C(=O)NC(c2ccc([N+](=O)[O-])cc2)C(C(=O)OCc2ccccc2)=C1C (centres undefined)
i,i,Nc1csnc1C(=O)O
i,>57,CN(C)S(=O)(=O)c1ccc(N2CCOCC2)nc1
i,>57,O=C(Nc1ccc2c3c(cccc13)CC2)c1ccco1
i,>57,CCc1nc2ccccc2n1Cc1ccccc1OC
i,i,CN(C)CCCN1c2ccccc2Sc2ccc(Cl)cc21
i,>57,Cc1[nH]c2ccccc2c1C(=O)CSc1ncn[nH]1
i,x,N#CCCN1CCN(S(=O)(=O)c2ccc(S(=O)(=O)NCC3CCCO3)cc2)CC1 (centres undefined)
i,>57,Cc1c(C(=O)NCc2ccc3c(c2)OCO3)oc2ccc(S(=O)(=O)N3CCCCC3)cc12
i,x,CN(C)S(=O)(=O)N1CCC(Cc2ccccc2)CC1
i,i,CN(C)/C=N/c1nc2ccc3c(c2s1)CCCC3
i,>57,Fc1cccc2sc(N3CCOCC3)nc12
i,>57,COc1ccc(S(=O)(=O)NCCOc2ccccc2)cc1OC
i,>57,O=C(CN1CCC(n2nnc3ccccc32)CC1)NCc1cccs1
i,>57,CCOc1cc(S(=O)(=O)NCc2ccccn2)c(C)cc1C
i,>57,CC(C)CCNC(=O)CN(C)S(=O)(=O)c1cccc2nsnc12
i,x,COCC(=O)N1CCC[C@@]2(CCN(Cc3nccs3)C2)C1
i,x,COC(=O)[C@@]1(Cc2ccc(OC)cc2)[C@H]2c3cc(C(=O)N(C)C)n(Cc4ccc(O)c(OC)c4)c3C[C@H]2CN1C(=O)c1ccccc1
i,>57,COCCNC(=O)c1ccccc1NC(=O)c1ccc(OC)c(OC)c1
x,>11.4,CCCCc1cc(=O)oc2c(CN(C)C)c(O)c(Cl)cc12
i,>57,CC(NCCO)C(=O)C12CC3CC(CC(C3)C1)C2 (centres undefined)
i,>57,COc1cccc(C(=O)Nc2ccc(NC(=O)C(C)C)nc2)c1
i,>57,COc1ccc(N2CCN(C(=O)CN(c3ccccc3)S(C)(=O)=O)CC2)cc1
i,>57,CC(=O)NC(CCS(C)(=O)=O)C(=O)N1CCc2ccccc21 (centres undefined)
i,>57,CN(C)c1ccc(C(c2nnnn2C2CCCCC2)N2CCN(C(=O)c3ccco3)CC2)cc1 (centres undefined)
i,x,O=C(NCC1CCCO1)c1ccc2c(c1)C(=O)N(C1CCCCC1)C2=O (centres undefined)
i,x,Nc1nc2c(nc(Br)n2[C@@H]2O[C@H]3COP(=O)(O)O[C@@H]3[C@H]2O)c(=O)[nH]1
i,x,Oc1ccc2ccccc2c1CN1CCN(c2ccccc2F)CC1
i,i,COc1ccc2nc(NC(=O)c3ccoc3C)sc2c1
